High-throughput results deposited in PubChem BioAssay by several laboratories.
Bead autofluor – compound fluorescence in toxin protease inhibitor counterscreen; compound autofluorescence counterscreen, microsphere flow cytometry; hits give high values; fluorescence intensity (no concentration beside the values); 360,000 tested, 3.1% active; AID 624483;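 active = at least 3 SD above the mean of all compounds, about 16000 in these data; inconclusive = too few beads counted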;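 also: 100 nL of 1 mM stock went into each well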
BJeLR viability – BJeLR cell viability loss; BJeLR (HRASV12) viability, CellTiter-Glo ATP luminescence, 48 h; reference of the scale not given here; 300,000 tested, 0.17% active; inhibition, % (concentration not given with the values);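 active = replicate mean above 50%; inconclusive = above 50% but judged a plate artefact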;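 also: 50 nL library stock added to about 25 µL; numbers are from one replicate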
Sa RN4220 lethal – kills Staphylococcus aureus RN4220. inhibition, % (test concentration not listed). S. aureus RN4220 growth, OD600, 16 h. 330,000 tested, 0.33% active. AID 1259311;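 active = z-score of -3 or lower and OD600 up to 0.18 on both plates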;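 also: plate controls were untreated cells for no effect and reference antibiotic for full effect; stock transfer was 100 nL into about 80 µL; one replicate is shown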
PrP UTR inh – suppresses PrP 5' UTR mRNA reporter expression. cell-based PrP 5' UTR mRNA reporter, plate reader. inhibition, % (concentration not given with the values). 340,000 tested, 0.35% active. AID 488862;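 active = every replicate at 50% or more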;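 also: 0 = median of the neutral control wells; tested in H4 reporter cells; numbers are from one replicate; inactives centre near -14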
Mtb hypoxia rep – reduces hypoxia-regulated biosensor signal in M. tuberculosis. M. tuberculosis hypoxia-regulated fluorescent reporter, fluorescence. fluorescence inhibition, % (test concentration not listed). 300,000 tested, 0.1% active;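 active = 35 to 45% if threefold the growth effect, above 45% if 1.5-fold the growth effect; inactive = the rest, general growth blockers included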;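 also: wells of about 50 µL received 100 nL stock; 0% = vehicle wells and 100% = reference inhibitor wells; whole bacteria with a GFP reporter of the hypoxia response; strong numbers were not always called active; many hits fall short of the cut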
ugtP null kill – growth inhibition of S. aureus ugtP deletion strain; S. aureus RN4220 ugtP deletion, OD600 growth, 16 h; some inactives read as strong as hits; growth inhibition, % (concentration not given with the values); 330,000 tested, 0.54% active;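 active = z-score under -3 and OD600 up to 0.15 on both plates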;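 also: plate controls were untreated wells for no effect and antibiotic for full effect; wells of about 80 µL received 100 nL stock; the first replicate is given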
Mtb hypoxia rep growth – also measured in Mtb hypoxia rep; calls as there; growth inhibition, %; measured here: M. tuberculosis growth (absorbance);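 0% = vehicle and 100% = reference antibiotic; read after six days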
Active calls of the source: *; ? = inconclusive; nt = not tested or not shown.

SMILES	Bead autofluor	BJeLR viability	Sa RN4220 lethal	PrP UTR inh	Mtb hypoxia rep	Mtb hypoxia rep growth	ugtP null kill
COc1ccccc1CC(=O)N1CCN(S(=O)(=O)c2cccs2)CC1	5711	6	-1.1	-19	3	10	0
Cn1c(=O)c2c(ncn2CC(=O)Nc2cc(S(=O)(=O)N3CCCCC3)ccc2Cl)n(C)c1=O	2898	nt	5.2	-8	6	2	11
Clc1nccnc1-c1ccccc1	2566	-10	-0.7	-32	-2	2	0
Cc1cc2ccccc2n1CCNCc1c(C(=O)N2CCOCC2)nc2ccccn12	4390	-2	0.2	-13	-1	1	3
COc1ccc(N2CCN(CC(=O)Nc3ccc(C)cc3)CC2)cc1	3088	-5	5.4	-9	5	1	12
COc1ccc(CCNC(=O)C2CCN(S(=O)(=O)c3ccc(OC)c(OC)c3)CC2)cc1OC	3749	0	-1.2	-30	-9	-3	-6
COC(=O)CC1=NN(c2ccccc2)C(=O)C1	4165	6	10	-14	12	14	3
CCCOC(=O)CC1C(=O)NCCN1Cc1ccc(F)cc1 (stereo unspecified)	5676	8	2.9	-21	6	10	7
O=C(NCc1cccc(C(F)(F)F)c1)N1CCN(S(=O)(=O)c2ccccc2F)CC1	3620	-4	-1.4	-21	10	4	8
CC(=O)Oc1cc2c(C(=O)NCCN3CCOCC3)c(C)oc2c2ccccc12	4562	-5	-1.8	-18	nt	nt	-1
COC(=O)c1ccccc1NC(=O)C(C)Oc1ccccc1 (stereo unspecified)	4424	nt	6.1	1	8	7	-6
O=C(N/N=C/c1ccco1)C1CCCC1	4554	-1	nt	6	nt	nt	nt
N#CC1=C(N)OC2=C(C(=O)CCC2)C1c1cc2c(cc1Br)OCO2 (stereo unspecified)	3972	-16	3.8	-20	6	-3	12
Cc1ccc(C(=O)OCC(=O)Nc2ccc3c(c2)OCO3)c(O)c1	3940	nt	-0.2	-34	4	-4	2
Cc1nc2ccccc2c(=O)n1/N=C/c1cccnc1	3089	-12	nt	2	nt	nt	nt
CCOc1ccc(/C=N/NC2=NCCCCC2)cc1	4270	2	nt	-35	nt	nt	nt
COc1ccccc1N(C)S(=O)(=O)c1ccc(C(=O)Nc2ccc3nc(C)sc3c2)cc1	2302	12	23	-11	-1	10	-10
O=C(COc1cccc(Cl)c1Cl)NC1CC1	nt	nt	2.8	-12	5	0	1
Cc1cc(C)c(C(=O)N2CCCC(N3CCN(c4cccc(C(F)(F)F)c4)CC3)C2)o1 (stereo unspecified)	4609	2	7.6	4	1	2	1
COc1ccc(C2=CC(=O)CC(c3ccc4c(c3)OCO4)C2)cn1 (stereo unspecified)	nt	nt	7.4	nt	16	13	6
CCc1ccccc1N(CC(=O)NC1CCCC1)C(=O)CNC(=O)c1cccs1	5681	-11	3.3	-28	8	3	6
CN(CCCC(=O)NCc1ccccc1)S(=O)(=O)c1ccc([N+](=O)[O-])cc1	3557	-8	15	-19	-6	6	8
COc1ccc(/C(C)=N/NC(=O)CNC(=O)c2ccncc2)c(OC)c1	4907	-5	nt	11	nt	nt	nt
CSC(=Nc1ccccc1)C(C#N)c1nc2ccccc2[nH]1 (stereo unspecified)	5628	4	-0.6	5	-15	7	-19
COc1cc(C(=O)OC(C)C(=O)N2CCc3ccccc3C2)ccc1OCC(=O)N1CCOCC1 (stereo unspecified)	4836	7	-2.8	-9	nt	nt	7

The list continues.
SMILES	Bead autofluor	BJeLR viability	Sa RN4220 lethal	PrP UTR inh	Mtb hypoxia rep	Mtb hypoxia rep growth	ugtP null kill
NC(=O)C1CCCN(S(=O)(=O)c2ccc(Br)cc2)C1 (stereo unspecified)	4716	0	3.5	-3	nt	nt	-9
Cc1ccc(NC(=O)Cc2nnc(SCC(=O)NC3CCCC3)n2C)c(C)c1	3541	-8	0.7	-14	-9	-6	3
CC(=O)Nc1cccc(C(=O)Nc2ccccc2C(=O)O)c1	3630	22	-9.8	5	-5	0	-9
O=[N+]([O-])c1ccc(Nc2ccccc2)cc1	2032	7	-2.7	-7	-7	-1	-6
O=C(Cc1ccc([N+](=O)[O-])cc1)NN=Cc1cccs1	nt	nt	2.4	nt	5	5	2
CN(CC1CCCO1)S(=O)(=O)c1ccc(C(=O)Nc2ccc(F)cc2)cc1 (stereo unspecified)	4495	4	-3.3	-22	0	4	0
O=C(NN=Cc1ccc(N2CCOCC2)cc1)c1cc2ccccc2cc1O	3739	nt	9.9	-3	-2	-2	7
CCN1C(=O)/C(=C/C=C2\C=CN(CC)c3ccccc32)SC1=S	6742	17	nt	-66	nt	nt	nt
CC1CCCN(C(=O)c2ccc(NS(=O)(=O)c3cccc([N+](=O)[O-])c3)cc2)C1 (stereo unspecified)	?	-8	7.0	-10	-3	-3	4
CCOc1ccc(NC(=O)c2ccc3c(SCC(=O)O)c4c(nc3c2)CCCC4)cc1	4350	-5	12	-9	8	0	3
COc1ccccc1C(=O)CSc1nnc(-c2ccco2)o1	4162	-20	7.7	-29	7	13	11
CN(C)S(=O)(=O)c1ccc(C(=O)OCCCN=C2NS(=O)(=O)c3ccccc32)cc1	5991	-4	3.1	-20	nt	nt	14
O=[N+]([O-])c1cc(Br)cc(C=Nn2cnnc2)c1O	nt	nt	12	nt	17	16	7
Cc1ccc(C(=O)N2CCc3ccccc32)cc1[N+](=O)[O-]	3309	-1	nt	-18	nt	nt	nt
CC(=O)NC(Cc1cccc(C)c1)C(=O)NC1CCN(C(=O)NCc2ccccc2)CC1 (stereo unspecified)	3628	-13	2.8	-18	-10	-4	3
O=C(COc1ccccc1Cl)OCC(=O)N1CCN(S(=O)(=O)c2ccccc2)CC1	3929	-9	1.9	-16	-6	-1	-1
CCc1ccc(-c2nc(CSCC(=O)N3CCN(c4ccccn4)CC3)c(C)o2)cc1	6129	11	17	8	8	17	-7
Cc1cccc(NC(=O)NN2CCN(C)CC2)c1C	6110	15	1.6	-9	8	1	3
Oc1cc(-c2ccncc2)cc2cccnc12	4186	nt	101*	-19	7	6	95*
CCN1C(=O)NC(=O)/C(=C\c2ccc(N3CCOCC3)cc2OC)C1=O	nt	4	1.3	nt	3	3	0
Cn1cc(C(=O)NCCc2ccccc2)c(=O)c2cc(S(=O)(=O)N3CCOCC3)ccc21	4956	nt	3.3	-12	11	-1	2
N#CC1=C(N)Oc2n[nH]c(-c3cccs3)c2C1c1ccoc1 (stereo unspecified)	2092	-9	-8.6	-3	nt	nt	-2
CC(C)(C)Cn1c(=O)[nH]c(=O)c2cc([N+](=O)[O-])cnc21	2596	0	1.8	-9	8	15	10
CCOc1ccc(N2CC(=O)Nc3ccccc3NCC2=O)cc1	3877	6	-2.4	3	11	15	-15
Clc1ccc(-c2nc3ccc(Cl)cn3c2CN2CCOCC2)cc1	3184	-3	-4.3	-1	-8	2	-9

Shown in CSV form: entries from further up.
molecule,Bead autofluor,BJeLR viability,Sa RN4220 lethal,PrP UTR inh,Mtb hypoxia rep,Mtb hypoxia rep growth,ugtP null kill
Cc1cccc(NC(=O)NN2CCN(C)CC2)c1C,6110,15,1.6,-9,8,1,3
Oc1cc(-c2ccncc2)cc2cccnc12,4186,nt,101*,-19,7,6,95*
CCN1C(=O)NC(=O)/C(=C\c2ccc(N3CCOCC3)cc2OC)C1=O,nt,4,1.3,nt,3,3,0
Cn1cc(C(=O)NCCc2ccccc2)c(=O)c2cc(S(=O)(=O)N3CCOCC3)ccc21,4956,nt,3.3,-12,11,-1,2

(next part)
SMILES	Bead autofluor	BJeLR viability	Sa RN4220 lethal	PrP UTR inh	Mtb hypoxia rep	Mtb hypoxia rep growth	ugtP null kill
CC(C)OC(=O)c1cc2c(ccn2-c2ccc(F)cc2)n1CC(=O)N1CCN(C(=O)c2ccco2)CC1	6403	4	-1.1	-35	8	0	5
CC(O)C1CCC2C3CCC4CC(O)CC[C@]4(C)C3C(=O)C[C@]12C (stereo partly specified)	nt	nt	-1.2	nt	-2	8	-4
NS(=O)(=O)c1ccc(CNC(=O)Cc2ccccc2[N+](=O)[O-])cc1	3417	-3	4.5	-20	7	4	8
O=C1CC(SC(=Nc2ccccc2)Nc2ccccc2)C(=O)N1c1ccc(Cl)cc1 (stereo unspecified)	2920	2	-2.7	-8	14	9	12
COc1ccc(CCNc2ccc(C(CC(N)=O)NC(=O)c3cc(C)cc(C)c3)cc2[N+](=O)[O-])cc1 (stereo unspecified)	3462	4	-2.7	-6	8	1	-3
O=C(COC(=O)c1nc(-c2ccccc2)n(-c2cccc(C(F)(F)F)c2)n1)NCc1cccs1	1976	2	4.9	-11	7	2	12
O=C(Nc1ccc(N2CCOCC2)cc1)c1cc2ccccc2o1	3486	1	8.0	-72	14	3	-7
Cc1cc(=O)n2nc(N3CCCC3C(=O)NCc3ccccn3)sc2n1 (stereo unspecified)	3258	-3	3.7	-6	3	2	-7
COc1ccc(N2CCN(C(=S)Nc3ccccc3OC)CC2)cc1	4025	0	3.1	-11	5	0	12
COC(=O)Nc1c(C)nn(Cc2ccccc2C)c1C	7821	-8	3.1	-14	9	17	3
O=C(CSc1ccc(Br)cc1)N1CCOCC1	3267	1	1.2	-15	13	8	12
Cc1cc(=O)[nH]c(N2CCOCC2)n1	3213	4	-1.5	-14	-12	-2	0
COC(=O)c1c(SCC(=O)Nc2ccc(C)cc2)nc(=O)[nH]c1C	4438	-6	0.8	-19	-6	6	1
COC(=O)c1ccc(N2C(=O)CC(NCc3ccccc3)C2=O)cc1 (stereo unspecified)	3436	-6	3.5	13	8	-1	0
COc1c(C)cc(C(=O)C2CCCN(C(=O)c3cc(C)on3)C2)cc1C (stereo unspecified)	5746	3	5.3	-1	14	6	7
Cc1ccc(NC(=O)CN(C)S(=O)(=O)c2ccc(Cl)s2)c(O)c1	nt	nt	0.3	3	0	-1	-3
O=C(C1CCC(CNc2c(N3CCCCC3)c(=O)c2=O)CC1)N1CCc2ccccc2C1 (stereo unspecified)	4390	6	-0.4	-17	nt	nt	7
O=C(NCCc1ccc(F)cc1)Nc1ccc2c(c1)OCO2	2537	-9	-1.5	-76	1	-5	3
O=C(NC12CC3CC(CC(C3)C1)C2)N(Cc1ccccc1)Cc1ccncc1	4121	22	10	2	-3	-9	3
CCOC(=O)/C(C#N)=C/c1cn(CCC(=O)O)nc1-c1ccc(Cl)cc1	2503	-2	nt	-20	nt	nt	nt
CS(=O)(=O)N(CC(=O)NCCSc1ccccc1)c1ccc2c(c1)OCO2	11956	2	5.2	-7	14	3	7
CN(c1ccccc1)S(=O)(=O)c1ccc(C(=O)NNC(=O)c2ccccc2F)cc1	8585	nt	5.4	-11	8	3	-1
O=C(CN1C(=O)C2CC=CCC2C1=O)Nc1nccs1 (stereo unspecified)	2697	4	1.5	8	nt	nt	3
Cc1ccc(S(=O)(=O)Oc2ccccc2/C=N/NC(=O)c2c(Cl)cnn2C)cc1	3915	-7	nt	-19	nt	nt	nt
CCOC(=O)C1CCN(S(=O)(=O)c2ccc(OC)c(Cl)c2)CC1	4524	-5	1.4	-6	-5	-4	-3

(listing goes on)
SMILES	Bead autofluor	BJeLR viability	Sa RN4220 lethal	PrP UTR inh	Mtb hypoxia rep	Mtb hypoxia rep growth	ugtP null kill
CN1C(=O)C(C)(C)c2cc(S(=O)(=O)N3CCC(C(=O)NCc4ccc(F)cc4)CC3)ccc21	5728	11	1.7	-9	-1	-4	4
Cc1cc2c(cc1C)CSC(c1ccc3ccccc3c1O)SC2	9872	4	-1.2	-24	10	14	9
COc1ccc(CNC(=O)COc2cc(O)c3c(c2)OC(C)(C)CC3=O)cc1	4464	-8	3.7	37	nt	nt	-8
CCOc1ccc(S(=O)(=O)N2CCN(C(=O)CCC(=O)N3CCOCC3)CC2)cc1	4068	-5	3.8	-29	13	2	-1
O=C(Nn1cnnc1)C(Sc1ccccc1)c1ccccc1 (stereo unspecified)	11036	1	3.0	1	-1	1	2
C[C@H](CO)N1C[C@H](C)[C@@H](CN(C)C(=O)Nc2ccccc2)Oc2c(NC(=O)c3ccncc3)cccc2C1=O	3626	nt	6.1	62*	-6	10	1
Oc1ccc(CCN2CCCCC2)cc1	3453	nt	1.2	2	13	6	5
c1ccc(OCCOCCOc2ccccc2)cc1	3176	nt	1.8	-32	15	13	9
N#CC1c2ccccc2C=CN1C(=O)c1ccccc1 (stereo unspecified)	3630	15	6.5	-7	20	6	4
Cn1cc(-c2nnnn2-c2cccc(C(F)(F)F)c2)c(C(F)(F)F)n1	24492*	1	2.1	-5	2	-4	7
CC(C)COc1ccc(C2NC(=O)NC2=O)cc1 (stereo unspecified)	5122	1	1.8	-22	8	1	1

The order is random; about 4% have a hit in one of these screens.
